ClpP mod: qHTS Assay for Activators of ClpP. ATP-dependent Clp protease proteolytic subunit (Bacillus subtilis (strain 168)), P80244. purified B. subtilis ClpP, FRET peptide cleavage, 20 min. Potency, µM (series often up to 57.5 µM), for the others: at the highest dose activity change, negative = active. 340,000 tested, 1.9% active. AID 651965, 2013; active = well fitted falling curve with a large enough effect; inconclusive = small, poorly fitted or top-dose-only effect; inactive = no such curve, though single readings can be large or run the other way; further: potency means the concentration at half of the fitted maximal effect; the source files actives as falling curves though it sought activators and does not explain the sign; nearly all actives have a fitted effect of over 65% in size; many hits overshoot -100%
Target sequence (P80244 whole entry, looked up): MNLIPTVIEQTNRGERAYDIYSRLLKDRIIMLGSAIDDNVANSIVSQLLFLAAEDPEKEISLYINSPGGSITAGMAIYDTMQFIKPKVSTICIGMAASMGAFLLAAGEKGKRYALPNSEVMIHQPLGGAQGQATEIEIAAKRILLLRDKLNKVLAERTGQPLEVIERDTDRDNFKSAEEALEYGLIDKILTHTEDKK
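Purified B. subtilis ClpP, 10 microg/mL final in Tris/HCl pH8 with KCl, BSA, glycerol and Tween-20, cleaved an Abz/nitrotyrosine-quenched decapeptide. Fluorescence (ex 320, em 430) was read at 0 and 20 min at room temperature. Delta was normalized to 5.8 microM ADEP and DMSO/no-enzyme controls.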
Sfp inh: qHTS Assay for Inhibitors of Bacillus subtilis Sfp phosphopantetheinyl transferase (PPTase); 4'-phosphopantetheinyl transferase ffp (Bacillus subtilis), Q9F4F7; Biochemical Sfp PPTase activity, qHTS; Potency, µM, for inactives: max response, negative = inhibition, hits mostly inhibitors; 310,000 tested, 3.5% active; active means well fitted inhibition curve with a large enough effect; inconclusive means small, poorly fitted or top-dose-only effect, or another doubt; inactive means no such curve, though single readings can be large or run the other way;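 further: the enzyme is Sfp with the accession as filed and its product quenches rhodamine fluorescence; potency means the concentration at half of the fitted maximal effect; 0% = enzyme reaction without inhibitor and -100% = no enzyme wells; top concentration of the series not given in the record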
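With Hepes-Na pH 7.6 buffer containing 10 mM MgCl2, Sfp (15 nM) modified BHQ-2-YbbR (12.5 uM) using rhodamine-CoA (5 uM). Two reads 30 minutes apart at 525/598 nm yielded each well's rate.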
gsp ag: qHTS for Agonist of gsp, the Etiologic Mutation Responsible for Fibrous Dysplasia/McCune-Albright Syndrome: qHTS. 340,000 tested, 0.13% active. gsp mutant cells, cAMP HTRF, 30 min; control for the full effect not named in the record. Potency, µM (highest dose often 76.9 µM), inactives show top-dose activation (cAMP increase), hits mostly activators; active = well fitted activation curve with a large enough effect; inconclusive = small, poorly fitted or top-dose-only effect, or another doubt; inactive = no such curve, though single readings can be large or run the other way; cell line not stated here;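 further: phosphodiesterase inhibitor Ro 20-1724 added with compounds to block cAMP breakdown; potency means the concentration at half of the fitted maximal effect; nearly all actives have a fitted effect of over 60% in size; about a fifth of the inactives were tested at one dose only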
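Cells in DMEM/10% FBS with G418 were pretreated with compounds in DMSO plus […] (300 uM stock) for 30 min at 37C. cAMP was measured by HTRF (cAMP-d2 plus anti-cAMP antibody-K) after 30 min at room temperature.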
gsp antagonist: qHTS for Antagonists of gsp, the Etiologic Mutation Responsible for Fibrous Dysplasia/McCune-Albright Syndrome: qHTS; 340,000 tested, 0.4% active; AID 624288, 2012; Potency, µM (series often up to 76.9 µM), without a hit: top-dose activity change, negative = inhibition, usual class: inhibitors; gsp-mutant cells, cAMP HTRF, 30 min; control for the full effect not named in the record; active = falling curve of any shape with a large fitted effect; inconclusive = falling curve, mostly with a smaller effect; inactive = flat or rising curve; cell line not stated here;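 further: intracellular cAMP measured with PDE inhibitor Ro 20-1724 present during compound exposure; potency means the concentration at half of the fitted maximal effect; on the % scale 0 is the no-effect control and ±100 the full control effect; nearly all actives have a fitted effect of over 65% in size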
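Cells in G418 medium, seeded 16-24 h, 37C; buffer exchange to DPBS + 1 mM CaCl2, 0.5 mM MgCl2, 0.05% BSA; cpds in DMSO + […] (300 uM stock), 30 min 37C; HTRF cAMP detection.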
Menin MLL FP FL: qHTS Assay for Inhibitors Targeting the Menin-MLL Interaction in MLL Related Leukemias: Competition With Fluorescein Labeled MLL-derived Peptide | 290,000 tested, under 10 active | Fluorescence polarization, fluorescein-MLL peptide displacement from menin | AID 1766, 2009 | FP activity change, % at 61.4 µM; inconclusive = falling polarisation curve, or a change in total fluorescence; inactive = total fluorescence flat and polarisation flat or rising; no compound was filed as active; the % refers to the polarisation; negative = inhibition;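 further: % of control where 0% means no effect; inhibitors lower the polarisation; unlabelled MLL peptide was the positive control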
TRPV1 potentiator: HTS Assay for Compounds that Act as Potentiators of the Vanilloid Receptor 1; Transient receptor potential cation channel subfamily V member 1 (Homo sapiens), Q8NER1; TRPV1-expressing cells, Fluo-8 calcium influx, capsaicin EC20 potentiation; host cell line not named in the record; control for the full effect not named in the record; potentiation, % at 8.33 µM; 320,000 tested, 0.02% active; AID 540277, 2011; active means potentiation above 80%; inconclusive means 30% to 80%; inactive means below 30%; further: 0% is about no effect
Target sequence (Q8NER1 whole entry, looked up): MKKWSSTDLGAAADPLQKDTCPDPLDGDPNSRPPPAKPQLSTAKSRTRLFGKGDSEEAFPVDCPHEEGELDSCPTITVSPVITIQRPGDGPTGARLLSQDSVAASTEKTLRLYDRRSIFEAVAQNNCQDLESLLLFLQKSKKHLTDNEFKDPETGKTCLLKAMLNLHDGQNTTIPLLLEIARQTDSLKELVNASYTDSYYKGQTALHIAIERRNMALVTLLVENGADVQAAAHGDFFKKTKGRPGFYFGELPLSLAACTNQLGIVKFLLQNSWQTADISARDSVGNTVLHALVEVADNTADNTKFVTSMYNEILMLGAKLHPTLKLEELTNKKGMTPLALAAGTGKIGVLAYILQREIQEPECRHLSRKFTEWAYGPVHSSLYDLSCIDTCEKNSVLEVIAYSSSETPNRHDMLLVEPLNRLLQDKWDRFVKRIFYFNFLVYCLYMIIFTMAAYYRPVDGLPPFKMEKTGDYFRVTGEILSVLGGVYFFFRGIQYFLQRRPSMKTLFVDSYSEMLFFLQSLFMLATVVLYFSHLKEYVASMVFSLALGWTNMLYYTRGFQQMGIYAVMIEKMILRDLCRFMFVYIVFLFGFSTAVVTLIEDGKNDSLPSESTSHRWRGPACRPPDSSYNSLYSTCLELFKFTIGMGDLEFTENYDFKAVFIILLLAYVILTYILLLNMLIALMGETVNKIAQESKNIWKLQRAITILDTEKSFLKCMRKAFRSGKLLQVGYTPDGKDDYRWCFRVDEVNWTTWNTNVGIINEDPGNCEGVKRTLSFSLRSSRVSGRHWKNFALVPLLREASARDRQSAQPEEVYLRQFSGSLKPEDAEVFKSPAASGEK
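Cells expressing TRPV1 were dye-loaded with Fluo-8 and read kinetically: 10 s baseline, 3 min after compound (agonist portion), then 2 min after EC20 capsaicin (allosteric enhancer portion). Calcium-bound dye fluorescence at 480/520 nm.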
TRPML1 inh: qHTS for Inhibitors of the Human Mucolipin Transient Receptor Potential 1 (TRPML1); Mucolipin-1 (Homo sapiens), Q9GZU1; TRPML1-inducible cells, Ca2+ dye fluorescence, FDSS; active compounds read low; inhibition of EC80 agonist-evoked calcium signal; activity change, negative = inhibition, % (concentration not given with the values); 390,000 tested, 0.02% active; AID 624415, 2012; in the data active means activity change below about -50%; inconclusive means about -30% to -50%; inactive means above about -30%;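 further: stimulus is agonist 54-4 at its EC80 concentration; on the % scale 0 is the no-effect control and ±100 the full control effect; the text of the record puts the active cut at -80%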
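Calcium fluorescence in TRPML1-DL cells induced overnight with Tet: a 110 s read after compound pin addition, then a 110 s antagonist read after challenge with 54-4 at 4 uM final (EC80).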
Starred values were filed as active, the others as inactive; ? = inconclusive; · = no result given; [ ] = remark or other dose.

SMILES	ClpP mod	Sfp inh	gsp ag	gsp antagonist	Menin MLL FP FL	TRPV1 potentiator	TRPML1 inh
O=C(Nc1ccc2oc(-c3ccncc3)nc2c1)c1ccc([N+](=O)[O-])o1	·	12%	-15%	5%	-1.6	-4	38
COC(=O)CSc1ncnc2c1cnn2Cc1ccccc1	-2.3%	10%	?	14%	2.0	3	1
CCS(=O)(=O)N1CCN(C(=O)c2cccc(OC)c2)CC1	-6.5%	15%	4%	4%	1.3	15	-12
COc1ccc(Cc2nnc(NS(=O)(=O)c3ccc([N+](=O)[O-])cc3)s2)cc1	·	-15%	-1%	-26%	·	7	4
COc1ccc(NC(=O)CS(=O)c2ccccc2Cl)cc1 (stereo not given)	1.8%	14%	30%	5%	·	-15	19
COC(=O)[C@@]12CCCN1[C@H](c1ccc(-c3ccc(Cl)c(Cl)c3)c(OC)c1)[C@H]1C(=O)N(C)C(=O)[C@H]12	-2.5%	·	-5%	?	·	·	30
CC(=O)c1cccc(N(CC(=O)N2CCCC2)S(C)(=O)=O)c1	-1.9%	12%	7%	8%	3.1	2	3
Cc1cccc(NC(=O)CSc2nnc(CNC(=O)c3ccco3)o2)c1C	0.3%	14%	13%	20%	·	12	2
CC(C(=O)NC1CCCc2ccccc21)N1CCN(c2ccc(F)cc2)CC1 (stereo not given)	-6.7%	4%	?	-3%	5.7	1	39
CCOC(=O)N1CCN(C(=O)CN(C2CCCCC2)S(=O)(=O)c2ccc(F)cc2)CC1	0.3%	4%	-15%	-5%	1.6	-8	-5
O=C(O)CN1CCN(Cc2ccccc2Cl)C1=O	-0.6%	10%	-11%	2%	1.0	11	-7
COC(=O)CN1C(=S)N(C)C(=O)C1CC(=O)Nc1ccccc1 (stereo not given)	-2.5%	5%	4%[15.4 µM]	9%	-1.2	-8	0
COc1cccc(NC(=S)Nc2cccc3ccccc23)c1	2.9%	-28%	?	6%	-4.5	1	28
Cc1cc(C(=O)NCc2ccc(S(N)(=O)=O)cc2)ccc1[N+](=O)[O-]	0.5%	-2%	-42%[inhibitor]	-9%	7.8	-10	-12
Cc1nc(-c2ccccn2)sc1C(=O)O	·	-24%	0%[15.4 µM]	11%	0.2	-5	3
CC(=O)c1ccc(N2CCN(C(=O)c3ccccc3SCC(=O)NCc3ccco3)CC2)c(F)c1	-25%	·	20%	-22%	·	·	-13
O=C(CN1C(=O)CSC1=O)Nc1ccc(C(=O)O)cc1	-1.0%	-2%	27%	1%	0.4	26	?
CCn1c(=O)n(CC)c2cc(N3CCCC3)c(NC(=O)c3ccccc3F)cc21	-3.5%	-16%	29%	?	6.7	-16	9
CCOC(=O)N1CCN(C(=O)CSc2ccc(-c3cccc(OC)c3)nn2)CC1	·	10%	10%[15.4 µM]	-19%	-1.3	-9	-2
O=C(NN1CCOCC1)c1cccc(COc2cccc(Br)c2)c1	·	10%	0%[15.4 µM]	1%	0.7	-11	-11
CCCCCCCOc1ccc(OC(=O)c2cccnc2)cc1	0.3%	4%	8%	-2%	-1.0	2	0
Cc1ccc(NC(=O)O/N=C/c2cccc([N+](=O)[O-])c2)cc1	·	16%	2%	5%	4.2	12	24
COc1cccc(C(=O)N(Cc2ccc(N(C)C)cc2)C2CCS(=O)(=O)C2)c1 (stereo not given)	-2.6%	-9%	?	-28%	1.0	-8	-14
CC(C)Oc1ccc(S(=O)(=O)N2CCOCC2)cc1NC(=O)CN1C(=O)NC2(CCCC2)C1=O	-6.4%	9%	-2%	2%	·	4	-6
C[C@@H]1CCCCO[C@H](CN(C)C)[C@H](C)CN([C@@H](C)CO)C(=O)c2cc(NC(=O)Nc3ccc(C(F)(F)F)cc3)ccc2O1	-2.7%	·	-91%[inhibitor]	·	·	·	-13
SMILES	ClpP mod	Sfp inh	gsp ag	gsp antagonist	Menin MLL FP FL	TRPV1 potentiator	TRPML1 inh
O=C(CCNC(=O)c1ccccc1Cl)Nc1ccc(S(=O)(=O)Nc2nccs2)cc1	0.7%	·	-56%[inhibitor]	0%	·	·	22
O=C(COc1ccc(Br)cc1)NCCCN1CCCC1=O	0.6%	·	4%	6%	·	-3	-5
CC(C)(C)NCc1cc(Br)ccc1OC1CCCC1	2.1%	16%	-22%	4%	-1.5	5	-7
O=C(Nc1ccc2[nH]ccc2c1)c1ccc(F)cc1	-0.7%	11%	16%	0%	-0.8	-10	-6
N#CC1=C2SCN(Cc3ccco3)CN2C(=O)CC1c1ccccc1F (stereo not given)	-0.7%	2µM*	29%	-8%	1.7	6	5
COc1cccc(-c2csc(N3CCN(C(=S)Nc4ccccc4C)CC3)n2)c1	-3.1%	11%	-40%[inhibitor]	-24%	5.7	-5	-24
Cc1ccc(OCC(=O)NNC(=O)C(C)Sc2ncnc3sc(C)c(C)c23)cc1 (stereo not given)	-1.3%	1%	?	0%	4.0	3	0
O=C(CNC(=O)N1CC(=O)Nc2ccccc21)NCCc1c[nH]c2ccccc12	-5.4%	9%	·	3%	1.0	19	·
Cc1onc(-c2c(F)cccc2Cl)c1C(=O)Nc1nc2ccccc2[nH]1	-2.8%	1%	2%	-13%	-0.4	?	?
N#Cc1ccccc1OCC(=O)N1CC(=O)Nc2ccccc21	1.8%	·	-3%	·	·	·	-6
COCCn1c(=O)[nH]c2cc(C(=O)NCCN3CCN(c4ccccc4F)CC3)ccc2c1=O	?	8%	-3%	-13%	-3.9	0	7
Cc1[nH]n(-c2cccc(Cl)c2)c(=O)c1/C=N/n1c(C)nc2ccccc2c1=O	-3.6%	5%	-1%	-5%	13	-14	11
CC(C)(O)C#Cc1ccc(CN2CCC(n3nccc3NC(=O)C3CC3)CC2)cc1	-2.0%	8%	-41%[inhibitor]	11%	·	24	0
CC(C)c1ccc(-c2nn[nH]n2)cc1	-0.7%	22%	2%	?	-1.1	-20	8
NC(=O)C1CCN(CC(=O)Nc2nc(-c3ccccc3)cs2)CC1	-2.1%	2%	36%	-8%	4.8	-2	0
CN(Cc1nccs1)C(=O)C1CCC(=O)N(Cc2ccccc2F)C1 (stereo not given)	-0.2%	3%	5%	12%	5.4	19	23
O=C(O)C1C2CCC(C2)C1C(=O)NCCc1cccc(Cl)c1 (stereo not given)	1.3%	11%	2%[15.4 µM]	11%	-3.9	-3	14
CN1C2C=C3C(C#N)=C(N)C(C#N)(C#N)[C@@H](c4ccc(Cl)cc4)[C@@H]3C1CC2 (stereo not given in full)	?	16%	17%	-13%	1.9	3	-12
CCOc1cc(C(=O)O/N=C(\N)c2ccccn2)cc(OCC)c1OCC	-0.5%	15%	-13%	8%	-1.2	-23	·
CC1CCC(NC(=O)c2nn(C)c3c2CSc2ccccc2-3)CC1 (stereo not given)	-1.4%	-4%	22%	-20%	·	1	50
Cc1cc(C)c(C(=O)NCC(=O)c2ccccc2)c(C)c1	·	·	-23%	7%	·	·	10
O=C(NCc1ccc2c(c1)OCO2)c1cc(S(=O)(=O)N2CCCCC2)ccc1F	-0.5%	4%	-16%	-8%	1.0	-13	3
CCOc1ncccc1C(=O)Nc1ccc(S(=O)(=O)N2CC(C)CC(C)C2)cc1 (stereo not given)	·	·	-7%	5%	·	·	-1
O=C(Cc1ccc(F)cc1)Nc1ccc2[nH]ncc2c1	-0.1%	-21%	-10%[15.4 µM]	26%	-5.1	-3	-2
COCCN(CCOC)S(=O)(=O)c1ccc(Cl)nc1	2.2%	14%	-55%[inhibitor]	16%	1.6	7	-28
SMILES	ClpP mod	Sfp inh	gsp ag	gsp antagonist	Menin MLL FP FL	TRPV1 potentiator	TRPML1 inh
Brc1ccc(-c2nnc(-c3cccc(Br)c3)o2)cc1	-11%	15%	0%	20%	11	24	20
O=C(NC1CCCCC1)C(c1ccc(F)cc1)N(C(=O)c1cccs1)c1ccc2c(c1)OCO2 (stereo not given)	1.0%	12%	-11%	2%	-3.3	0	3
Cc1ccc(C(=O)OCC(=O)Nc2cccc(S(=O)(=O)N3CCCCC3)c2)s1	-1.1%	·	-105%[inhibitor]	·	·	·	16
CCOC(=O)[C@H]1[C@H]2COc3ccc(OC)cc3[C@@H]2N2C(=O)CN(CC3CCCO3)C(=O)[C@@]12C (stereo not given in full)	0.9%	·	-10%	-4%	·	1	7
CC(C)(C)c1cc(NC(=O)CSc2nnc(NCc3ccccc3)s2)n(-c2ccccc2)n1	-0.1%	22%	-72%[inhibitor]	?	-2.2	2	-1
O=C(Nc1cccc(Cl)c1)c1ccc(F)c(S(=O)(=O)NCc2cccs2)c1	-1.9%	13%	-5%	-24%	1.7	1	-17
Nc1nc2c(nnn2Cc2ccc(Cl)c(Cl)c2)c(=O)[nH]1	-3.6%	·	-5%	8%	·	·	-12
Cc1ccc2c(n1)CC(C)(C)C/C2=N\O	-1.5%	-9%	11%	6%	2.4	-7	-17
COc1cccc(C2=NOC(C(=O)NCCCn3ccnc3)C2)c1 (stereo not given)	-3.2%	-4%	-7%	6%	3.2	1	-1
Cc1cc(=O)oc2cc(OCc3ccc(S(=O)(=O)N4CCOCC4)cc3)ccc12	3.2µM*	11%	7%	-14%	4.5	7	3
Oc1ccc(Cc2ccccc2)c2cccnc12	·	·	12%	0%	·	·	1
CN(c1nc(-c2ccccc2)cs1)C1CCS(=O)(=O)C1 (stereo not given)	0.5%	2%	?	-12%	4.0	-8	4
O=C(O)/C=C\C(=O)Nc1ccccc1C(=O)N1CCC(O)(c2ccc(Cl)cc2)CC1	·	·	-18%	3%	·	·	11
O=C(O)CCCCCNC(=O)Nc1ccc2c(c1)OCCO2	0.4%	15%	-39%[inhibitor]	10%	3.1	-3	2
